# H5N1 antiviral = MDCK cell protection from H5N1 avian flu. cytopathic effect, luminescence, 72 h; active compounds read high; no value below 0 was filed and about half of the inactive calls have no number; reference of the scale not given here. inhibition, % at 50 µM. 96,000 compounds, 0.07% hits. AID 740, 2007; in the data active = inhibition above about 25%
# An asterisk follows results filed as active; i = inactive. Some of the compounds tested. The share of hits here may be higher or lower than overall.
SMILES,H5N1 antiviral
O=C(c1cccnc1)N1CCN(Cc2ccc3c(c2)OCO3)CC1,i
Cc1ccc(S(=O)(=O)NC2(C(F)(F)F)NC(=O)N(C)C2=O)cc1 (stereo not drawn),i
Cc1nc2sc(C(c3ccc(Cl)cc3)N3CCOCC3)c(O)n2n1 (stereo not drawn),i
O=S(=O)(c1ccc(S(=O)(=O)N(Cc2ccc(F)cc2)C2CCCC2)cc1)N1CCCC1,0.1
O=C(NC(=S)Nc1ncc(Br)cc1Br)c1cncc(Br)c1,0.9
CCCN(CCC)S(=O)(=O)c1ccc2c(c1)CCCN2C(C)=O,1.0
O=C(Cc1ccccc1)N[C@H](c1ccccc1)P(=O)(O)CO,0.7
CCOC(=O)C1Cc2c([nH]c3ccccc23)CN1 (stereo not drawn),0.7
CN(C)S(=O)(=O)N1CCN(C(=O)N2CCCCC2)CC1,0.1
NC(=O)CSc1nnc(C2CC2)n1-c1ccccc1,0.8
[O-][N+]12CCN(CC1)c1ccccc12,i
OCCCNC(=S)Nc1ccc2nc(-c3ccccn3)c(-c3ccccn3)nc2c1,i
CCOC(=O)Cn1cnc2sc3c(c2c1=O)CCC3,0.1
O=C(c1c(F)cccc1F)N1CCN(c2ccccc2F)CC1,i
O=c1c(-c2nc3ccccc3o2)c2oc3ccccc3n2c2ccccc12,7.0
CCCS(=O)(=O)N1CCCC(C(=O)NCCCN(C)c2ccccc2)C1 (stereo not drawn),i
O=C(NCCCN1CCCC1)C1CCC(=O)N1C1CCCCC1 (stereo not drawn),i
Cn1c2ccccc2c2cnn(CC(=O)N3CCC4(CC3)OCCO4)c(=O)c21,0.9
COc1ccccc1CNC(=O)C1CCN(S(=O)(=O)c2c(C)noc2C)CC1,0.7
COc1cc(C2CC(C(F)(F)F)n3ncc(C(=O)O)c3N2)cc(OC)c1OC (stereo not drawn),0.6
CCCN1C(=S)SC(C)(C)C1/[N+]([O-])=C/c1cccnc1 (stereo not drawn),i
CCn1c(CNC(=O)c2ccco2)nnc1SCC(=O)Nc1cc(C)c(C)cc1Br,i
COc1ccc(OC)c(NC(=O)CSc2nnc(CCCO)n2-c2ccccc2)c1,0.4
CCOc1ccc(OC(=O)NC(c2ccccc2)C(Cl)(Cl)Cl)cc1 (stereo not drawn),i
CCN(CC)CCCOC(=O)C(OC)(c1ccccc1)c1ccccc1,i
Cc1nn(C)c(C)c1NC(=O)CSc1nc(-c2ccccc2Cl)nc2c1cnn2-c1ccccc1,i
CCC(=O)N1CCc2cc(S(=O)(=O)N3CCc4ccccc43)ccc21,0.3
COc1cc(/C=C/C(=O)NNc2c(F)c(F)cc(F)c2F)ccc1OC(F)F,i
COc1ccc(CC(=O)Nc2cccc(-c3nnc(-c4cccc(C)c4)o3)c2)cc1OC,i
CN(C)S(=O)(=O)c1ccc(C(=O)N2CCC(c3nc4ccccc4o3)CC2)cc1,1.4
CC(NC(=O)c1ccccc1Br)c1ccc2c(c1)CCCC2 (stereo not drawn),0.1
Cn1c(=O)c2c(nc(SCC(=O)N3c4ccccc4CCc4ccccc43)n2C)n(C)c1=O,i
Cn1c(SCC(=O)c2ccc3c(c2)Cc2ccccc2-3)nnc1-c1ccccc1,0.6
COc1ccccc1OC(C)C(=O)O (stereo not drawn),0.1
Cc1cc(C)cc(NC(=O)C2CCCN2C(=O)Oc2ccccc2)c1 (stereo not drawn),i
Cc1ccc(Cn2c(Sc3nccc(C)n3)nc3c2c(=O)[nH]c(=O)n3C)cc1,4.7
Cc1c(C(=O)NC2=NCCS2)oc2ccccc12,i
Cc1sc(NC(=O)C2CCCCC2C(=O)O)c(C(N)=O)c1-c1ccccc1 (stereo not drawn),i
CC(C)(C)NC(=O)Cn1cnc([N+](=O)[O-])n1,0.9
Cc1cc(C)c(S(=O)(=O)Nc2nnc(C)s2)c(C)c1,0.1
O=c1[nH]c(CN2CCNCC2)nc2ccccc12,i
CCC1C(O)=C(c2ccccn2)C(=N)N1c1ccccc1 (stereo not drawn),i
Cc1cc(Cl)ccc1OCC(=O)Nn1c(C)ccc1C,i
Cc1cccc(-n2c(C)cc(/C=N/n3cnnc3)c2C)c1,i
C(#CCN1CCOCC1)COCc1ccccc1,i
CC(C)C(NC(=O)c1cccc(S(=O)(=O)N2CCOCC2)c1)C(=O)NCCc1ccccn1 (stereo not drawn),0.1
CCn1nc(C(=O)OCC(=O)N2CCc3ccccc32)c2ccccc2c1=O,i
Cc1[nH]n(-c2ccccc2)c(=O)c1/C=N/Nc1nncc(-c2ccccc2)n1,i
O=C(CSc1ncccc1-c1nc2ccccc2[nH]1)N1CCN(c2ccccc2F)CC1,i
CCC(C)NC(=O)c1c(C)cc(=O)oc1C (stereo not drawn),i
CN(C(=O)c1coc(=O)c2ccccc12)c1ccc(F)cc1,i
O=C(O)CC(c1ccccc1)n1cccc1 (stereo not drawn),i
CCOC(=O)c1ccc(NC(=O)CC2C(=O)N(c3ccccc3)C(=O)N2CCCOC)cc1 (stereo not drawn),i
CNC(=O)C1CC(=O)N/C(=N/N=C(\C)c2cccs2)S1 (stereo not drawn),i
COC(=O)c1cn(NC(=O)c2ccc3c(c2)OCO3)c(=O)c2ccccc12,0.7
Nc1cc(C(=O)N2CCCC2)cc(C(=O)N2CCCC2)c1,i
COc1ccc(NC(=O)C2CCC(=O)N2S(=O)(=O)c2ccc(C)cc2)c(OC)c1 (stereo not drawn),i
O=C(C1CCC1)N1CCN(Cc2ccccc2)CC1,i
Cc1ccc2c(C)[nH]c(=O)cc2c1,i
COc1ccccc1N1CCN(CC(O)COc2ccc3c(C)cc(=O)oc3c2)CC1 (stereo not drawn),i

# Reformatted: results already given.
SMILES	H5N1 antiviral
CCn1nc(C(=O)OCC(=O)N2CCc3ccccc32)c2ccccc2c1=O	i
Cc1[nH]n(-c2ccccc2)c(=O)c1/C=N/Nc1nncc(-c2ccccc2)n1	i

# The results go on.
SMILES,H5N1 antiviral
OCCNc1nc2ccc(Cl)cc2[nH]1,i
CN1C2C=C3C(C#N)=C(N)C(C#N)(C#N)[C@@H](c4ccsc4)[C@@H]3C1CC2 (stereo partly drawn),1.8
Cc1cccc(OCCC(=O)Nc2ccc(S(=O)(=O)N3CCCC3)cc2)c1,i
O=C(Cc1c[nH]c2ccccc12)N1CCc2ccccc21,0.6
Cc1ccc(C)n1NC(=O)c1ccco1,i
C(=C\c1cc(/C=C/c2ccccc2)ncn1)/c1ccccc1,i
COc1ccc2cc(C)c(SCC(=O)Nc3cc(C)on3)nc2c1,0.7
O=C(CC(=O)N/N=C/c1ccc(Cl)cc1Cl)NCc1ccccc1,i
CNC(=O)Nc1ccc2snnc2c1,4.5
CCc1ccc(NC2=NC(C(=O)c3ccccc3)CC(=O)N2)cc1 (stereo not drawn),1.2
O=C(CSc1nc2ccccc2o1)NCc1n[nH]c(=O)c2ccccc12,1.6
Cc1cccc(N2CCN(C(=O)C(Cc3ccccc3)n3cccc3)CC2)c1C (stereo not drawn),i
COCC(=O)Nc1cc([N+](=O)[O-])ccc1C,i
COc1ccc(S(=O)(=O)N2CCN(C(=O)NCc3ccccc3)CC2)cc1,i
Cc1cc(N/C=C/C(=O)c2cccc3ccccc23)no1,i
COc1ccc(NC(=O)OC(C)C)cc1,i
CCOc1ccc(CNc2ccc3c(c2)ncn3C)cc1,i
Cn1cc([N+](=O)[O-])c(C(=O)Nc2ccc3c(c2)OCCO3)n1,0.4
C=C(C)C(=O)OC1(C(F)(F)F)Oc2cc(C)ccc2NC1=O (stereo not drawn),2.3
C=CCNC(=O)c1sc(SC)cc1-c1ccc(Cl)cc1,0.1
CCOC(=O)/C=C(\C)Sc1cc(=O)oc2ccccc12,0.1
O=C(O)C1C2C=CC(C2)C1C(=O)Nc1cccc(F)c1 (stereo not drawn),0.2
COc1ccc(C(=O)Cn2c(Br)nc3c2c(=O)n(C)c(=O)n3C)cc1OC,1.3
Nc1nsnc1C(=O)NCCO,i
Cc1cc(C)nc(SCCC(=O)N(C)C)n1,0.8
COc1cc2c(C(=O)N3CCN(C4CCCCC4)CC3)cn(CC(C)C)c(=O)c2cc1OC,1.7
O=C(Nc1ccn(-c2ccccc2)n1)c1ccc(S(=O)(=O)N2CCCCCC2)cc1,5.2
CCNC(=S)NCCN1CCCCC1,i
Cc1ccc(Cl)cc1N1CCN(C(=O)C2CCN(S(=O)(=O)c3c(C)nn(C)c3C)CC2)CC1,0.4
Nc1ccccc1-c1nc2ccccc2[nH]1,i
CC(C)Cn1c(-c2cccs2)nc2nc3ccccc3nc21,i
O=C1C=C(NCc2ccc(Cl)c(Cl)c2)C2(CCCCC2)O1,i
O=C(Cn1ncc2ccsc2c1=O)N1CCC2(CC1)OCCO2,i
COC(Cc1nnc(SC)n1-c1ccccc1)OC,i
O=C(CSc1ncc(-c2ccc(F)cc2)[nH]1)N1CCCCC1,0.1
CC(=O)OC1C2CCC1C(N1CCCC1)CC2 (stereo not drawn),0.8
Nc1cc(=O)[nH]c(SCC(=O)Nc2ccc(S(=O)(=O)N3CCOCC3)cc2)n1,0.1
Cc1ccc2c(COC(=O)c3n[nH]c4ccccc34)cc(=O)oc2c1,i
CCn1c(CCNC(=O)c2ccc(Cl)cc2)n[nH]c1=S,i
COc1ccc(OC)c(C(=O)COC(=O)c2cc(C)oc2C)c1,i
CC(C)(C)NCC(=O)c1c[nH]c2ccccc12,0.3
Cc1cc(C)n(-c2ncnc3c2oc2ccccc23)n1,8.1
O=C(N/N=C/c1ccc(OCCCF)cc1)c1cc(OCC(F)(F)F)ccc1OCC(F)(F)F,i
COCCNC(=O)c1cc(Br)ccc1Cl,i
C=C(C)C1Cc2nc(N)nc(C)c2C1 (stereo not drawn),0.5
O=C(N/N=C/c1c(Cl)cccc1Cl)c1cccc(F)c1,1.2
Cc1occc1-c1nnc(SCc2nc3ccccc3c(=O)n2CC#N)n1C,1.7
Nn1c(SCC(=O)Nc2ccc(F)cc2)nnc1-c1ccccn1,0.3
COc1ccc(OCC(=O)Nc2cccc(OC)c2)cc1,i
COc1cc(C2NC(=O)NC(C)=C2C(=O)OC2CCCC(C)C2)ccc1O (stereo not drawn),2.7
CCc1cc2c(=O)n(Cc3ccco3)c(SCc3c(C)noc3C)nc2s1,9.8
CC(C)OC(=O)c1cccc(C(=O)Oc2ccccc2)n1,0.2
NC(=O)C1(N2CCCCC2)CCN(CC(=O)Nc2ccccc2-c2ccccc2)CC1,i
COC(=O)C1=C(C)N=C2SC(C#N)=C(N)N2C1c1ccc(OC)cc1 (stereo not drawn),0.9
CSc1nc(C)cc(SC(C(C)=O)C(=O)Nc2ccccc2)n1 (stereo not drawn),0.1
COCCNc1ncnc2nc[nH]c12,i
Cc1ccc(CN2CCNC(=O)C2CC(=O)O)cc1 (stereo not drawn),0.7
Cc1cccc(OCC(=O)N2CCC(N3CCCCCC3)CC2)c1,0.7
COc1ccc2c(c1)c1ncnc(N3CCN(Cc4ccc5c(c4)OCO5)CC3)c1n2C,2.6
CCOC(=O)c1[nH]c(C)c(C(=O)c2ccc(C)cc2)c1C,i
# Other results follow.
SMILES,H5N1 antiviral
Cc1nc(CCNC(=O)Cc2ccc(F)cc2)cs1,0.8
Cn1cc(/C(Cc2ccccc2)=N\O)c2ccccc21,i
CN(CCCNC(=O)C1CCCN(S(=O)(=O)c2cnc[nH]2)C1)c1ccccc1 (stereo not drawn),i
COCCn1c(CN(C)Cc2ccccc2)nc2c1c(=O)n(C)c(=O)n2C,i
CCCCCC(=O)NC(=S)NNC(=O)CC,5.0
O=C1NC(=S)N(c2ccc(Cl)cc2)C(=O)/C1=C/N1CCN(C(=O)c2ccco2)CC1,i
CCC1(CC)NC(=O)N(CC(=O)Nc2sc3c(c2C(N)=O)CCC3)C1=O,i
O=C(NC(=S)Nc1ccccc1N1CCCCC1)c1ccc(-c2cccc([N+](=O)[O-])c2)o1,i
CC(=O)Nc1ccc(S(=O)(=O)c2c(N)n(CCN3CCOCC3)c3nc4ccccc4nc23)cc1,i
CCOC(=O)c1cc2sccc2n1CC(=O)OC(C)C,i
O=C(NCCCn1ccnc1)c1ccncc1,0.9
Cc1cc(C)nc(NC(=O)Nc2ccccc2C(F)(F)F)n1,i
Cn1ncc2c(Nc3ccccc3Br)ncnc21,0.7
CN(c1ncc(C(F)(F)F)cc1Cl)n1cc(C(=O)O)c2ccccc2c1=O,i
CCOC(=O)c1cnn(-c2nc(SC)nc3sc4c(c23)CCC4)c1N,0.4

# At a glance, part of the list above:
SMILES,H5N1 antiviral
COCCNc1ncnc2nc[nH]c12,i
Cc1ccc(CN2CCNC(=O)C2CC(=O)O)cc1 (stereo not drawn),0.7
Cc1cccc(OCC(=O)N2CCC(N3CCCCCC3)CC2)c1,0.7
COc1ccc2c(c1)c1ncnc(N3CCN(Cc4ccc5c(c4)OCO5)CC3)c1n2C,2.6
CCOC(=O)c1[nH]c(C)c(C(=O)c2ccc(C)cc2)c1C,i
Cc1nc(CCNC(=O)Cc2ccc(F)cc2)cs1,0.8
Cn1cc(/C(Cc2ccccc2)=N\O)c2ccccc21,i
CN(CCCNC(=O)C1CCCN(S(=O)(=O)c2cnc[nH]2)C1)c1ccccc1 (stereo not drawn),i
COCCn1c(CN(C)Cc2ccccc2)nc2c1c(=O)n(C)c(=O)n2C,i
CCCCCC(=O)NC(=S)NNC(=O)CC,5.0
O=C1NC(=S)N(c2ccc(Cl)cc2)C(=O)/C1=C/N1CCN(C(=O)c2ccco2)CC1,i
CCC1(CC)NC(=O)N(CC(=O)Nc2sc3c(c2C(N)=O)CCC3)C1=O,i
O=C(NC(=S)Nc1ccccc1N1CCCCC1)c1ccc(-c2cccc([N+](=O)[O-])c2)o1,i
CC(=O)Nc1ccc(S(=O)(=O)c2c(N)n(CCN3CCOCC3)c3nc4ccccc4nc23)cc1,i
CCOC(=O)c1cc2sccc2n1CC(=O)OC(C)C,i
O=C(NCCCn1ccnc1)c1ccncc1,0.9
Cc1cc(C)nc(NC(=O)Nc2ccccc2C(F)(F)F)n1,i
Cn1ncc2c(Nc3ccccc3Br)ncnc21,0.7
CN(c1ncc(C(F)(F)F)cc1Cl)n1cc(C(=O)O)c2ccccc2c1=O,i
CCOC(=O)c1cnn(-c2nc(SC)nc3sc4c(c23)CCC4)c1N,0.4

# Next section.
SMILES,H5N1 antiviral
O=C(O)c1[nH]nc2c1COc1ccccc1-2,1.9
CC(=O)C1=C(O)C(=O)N(CO)C1c1ccccc1F (stereo not drawn),i
CN(C)S(=O)(=O)N1CCN(CC(=O)Nc2cc(Cl)ccc2Cl)CC1,1.0
N#Cc1c(Oc2ccc3ccccc3c2)sc(C(=O)c2ccccc2)c1N,2.9
CC(Nc1cccc2ccccc12)C(=O)N/N=C/c1ccccn1 (stereo not drawn),0.3

# Assay outcomes: PubChem BioAssay, SRMLSC
